# RE007 growth inh: less growth of the S. pombe RE007 Vpr strain; Potency, µM (highest dose often 92.2 µM), for the others: at the highest dose activity change, negative = less growth; actives 0.21% (n = 360,000); S. pombe RE007 Vpr strain, BacTiter-Glo ATP luminescence, 24 h; control for the full effect not named in the record; active = well fitted falling curve with a large enough effect; inconclusive = small, poorly fitted or top-dose-only effect; inactive = no such curve, though single readings can be large or run the other way;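 note: % is set by controls: 0 for no effect and ±100 for the full control effect; nearly all actives have a fitted effect of over 50% in size; the assay follows cell death caused by Vpr and the record does not say whether a fall means rescue or toxicity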
#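 Fission yeast RE007 carrying one integrated HIV-1 vpr copy, seeded at OD 0.01 in PMG+AL medium with 23 nL pinned compound. Grown 24 h at 30 degrees; viability read by BacTiter-Glo luminescence after 5 min.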
# 2A StopGo: lowers the luciferase signal of an FMDV 2A StopGo reporter; human cells with a luciferase reporter of 2A StopGo recoding; control for the full effect not named in the record; Potency, µM (series often up to 57.9 µM), without a hit: at the top dose signal change, negative = less light; actives 1.2% (n = 410,000); AID 1159524; active = well fitted falling curve with a large enough effect; inconclusive = small, poorly fitted or top-dose-only effect; inactive = no such curve, though single readings can be large or run the other way; tested in HEK293T cells; note: % is set by controls: 0 for no effect and ±100 for the full control effect; nearly all actives have a fitted effect of over 45% in size; luciferase light after 4 h
# Cruzain noTriton: inhibitors of Trypanosoma cruzi cruzain without detergent; P25779; purified cruzain, Z-FR-AMC fluorescence, no detergent; Potency, µM, without a hit: max response, negative = inhibition, hits mostly inhibitors; actives 2.3% (n = 200,000);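 note: plate controls were enzyme without inhibitor for no effect and buffer without enzyme for full effect; nearly all actives have a fitted effect of over 40% in size; top concentration of the series not given in the record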
# Target sequence (P25779 123-467 limits assumed): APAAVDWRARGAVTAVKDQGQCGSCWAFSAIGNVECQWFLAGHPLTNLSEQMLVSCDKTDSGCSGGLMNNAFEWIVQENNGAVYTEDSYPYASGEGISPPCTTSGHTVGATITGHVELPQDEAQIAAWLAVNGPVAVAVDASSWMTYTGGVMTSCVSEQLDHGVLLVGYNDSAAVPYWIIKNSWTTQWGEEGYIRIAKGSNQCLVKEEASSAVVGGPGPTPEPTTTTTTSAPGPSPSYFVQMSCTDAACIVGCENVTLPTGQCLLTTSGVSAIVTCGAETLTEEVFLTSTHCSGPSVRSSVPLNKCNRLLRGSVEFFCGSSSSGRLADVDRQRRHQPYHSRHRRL
#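 Purified cruzain at 1.5 nM, pre-incubated 15 min with compound at room temperature in 100 mM sodium acetate pH 5.5, 5 mM DTT, 0.00005% Triton X-100. Reaction started with 2 uM Z-FR-AMC; AMC fluorescence increase over 60 s gives rate.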
# Lassa entry inh: blocks Lassa virus binding to or entry into cells; Lassa virus pseudotype entry inhibition, cell reporter; control for the full effect not named in the record; Potency, µM (doses to about 37.9 µM), for inactives: at the highest dose activity change, negative = inhibition, hits mostly inhibitors; actives 1.2% (n = 300,000); AID 540256; active means well fitted inhibition curve with a large enough effect; inconclusive means small, poorly fitted or top-dose-only effect, or effect the other way; inactive means flat fitted curve, though single readings scatter; tested in HEK293 cells; note: % is set by controls: 0 for no effect and ±100 for the full control effect; nearly all actives have a fitted effect of over 50% in size; luciferase read-out
# NS1 function inh: influenza NS1 inhibition; actives 0.4% (n = 270,000); S. cerevisiae slowed by influenza A NS1, growth recovery by OD600; Potency, µM (doses to about 46.1 µM), for inactives: top-dose activity, positive = more growth; active means well fitted rising curve with a large enough effect; inconclusive means small, poorly fitted or top-dose-only effect; inactive means no such curve, though single readings can be large or run the other way; note: nearly all actives have a fitted effect of over 50% in size
#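 S. cerevisiae expressing influenza A NS1, grown in glucose, washed, then diluted 1:100 into pH 6.0 -URA galactose medium with 23 nl compound. Growth recovery read as OD600; NS1-free strain serves as control.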
# MARV entry inh: Marburg virus entry inhibition; Marburg virus pseudotyped entry inhibition, cell reporter; control for the full effect not named in the record; about a third of the inactives were read at about 46 µM; Potency, µM (top dose mostly 37.8 µM), inactives show at the highest dose activity change, negative = inhibition, usual class: inhibitors; actives 1.8% (n = 300,000); AID 540276; active = well fitted inhibition curve with a large enough effect; inconclusive = small, poorly fitted or top-dose-only effect, or effect the other way; inactive = flat fitted curve, though single readings scatter; tested in HEK293 cells; about a fifth of its hits are not listed in these tables; note: % is set by controls: 0 for no effect and ±100 for the full control effect; luciferase read-out
# Cruzain inh Det: cruzain (T. cruzi) inhibition with detergent | purified cruzain, Z-FR-AMC fluorescence, 0.01% Triton | Potency, µM, inactives show max response, negative = inhibition, most hits filed as inhibitors | P25779 | actives 0.43% (n = 200,000);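 note: plate controls were neutral wells for no effect and buffer without enzyme for full effect; nearly all actives have a fitted effect of over 40% in size; top concentration of the series not given in the record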
#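 Z-FR-AMC hydrolysis (2 uM substrate) by cruzain (1.5 nM) monitored kinetically at ex 360/em 450 nm after 15 min room-temperature compound exposure; 0.01% Triton X-100, pH 5.5, 5 mM DTT.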
# SARS PLP yeast: SARS-CoV PLP inhibition in yeast. S. cerevisiae expressing SARS-CoV PLpro, growth rescue; control for the full effect not named in the record. Potency, µM (series often up to 32.9 µM), for the others: top-dose activity, positive = growth rescue. actives 0.19% (n = 330,000); active means well fitted rising curve with a large enough effect; inconclusive means small, poorly fitted or top-dose-only effect; inactive means no such curve, though single readings can be large or run the other way; note: 0% is about no effect; nearly all actives have a fitted effect of over 55% in size; growth read by luminescence after 48 h
# Active calls of the source: *; ? = inconclusive; / = not tested or not shown; & = joins results of further samples; [ ] = remark or other dose. Unless noted, calls come from the whole dose curve; as a rule, active = well fitted curve in the direction sought with a large enough effect; inconclusive = small, poorly fitted or top-dose-only effect, or another doubt; inactive = no such curve, though single readings can be large; an effect the other way counts as inactive or inconclusive. Potency is the fitted concentration of half-maximal effect.
item	compound	RE007 growth inh	2A StopGo	Cruzain noTriton	Lassa entry inh	NS1 function inh	MARV entry inh	Cruzain inh Det	SARS PLP yeast
1	CCOC(=O)C1NN=C(C(=O)c2ccccc2)C1c1ccccc1 (stereo unspecified)	-4%	-7%	-9%	3%	2%	10%	1.5%	13%
2	COc1ccccc1C(=O)Nc1ccc(NC(=O)C2CCCCC2)nc1	26%	1%	/	6%	12%	-2%[46.1 µM]	/	0%
3	Cc1cccc(N2CCN(CCCNc3ncnc4onc(-c5ccc(Cl)cc5)c34)CC2C)c1 (stereo unspecified)	/	-25%	-17%	0%[46.1 µM]	/	/	-0.5%	/
4	Cn1nc(OC(=O)Nc2ccc(Cl)cc2)cc1C(F)(F)F	/	/	-5%	/	3%	-2%	-2.3%	-8%
5	Cc1ccc(NC(=O)C(C)NC(=O)OCc2ccccc2)cc1C (stereo unspecified)	7%	-21%	/	0%	-5%	-9%[46.1 µM]	/	0%
6	Cc1ccc2[nH]c(-c3cccc(F)c3)cc(=O)c2c1	5%	38%[activator]	-28%&-10%	-13%	-6%	?	0.0%&4.0%	3%
7	Cc1[nH]c2ccc(C(=O)OCC(=O)NC3(C#N)CCCCC3)cc2c1C	5%	?	/	6.3µM*	/	?	/	3%
8	CCc1ccc(NC(=O)c2cc3sc(Cl)cc3n2C)cc1	/	55%[activator]	28%	/	/	?	32%[activator]	/
9	CCOC(=O)/C(C#N)=C\C1=C(N2CCCC2)CC(C)(C)OC1	?	-6%	7%	15%	5%	-4%[46.1 µM]	-6.6%	-5%
10	O=C(O)CC/C(=N\Nc1ccccc1[N+](=O)[O-])c1cccs1	7%	-3%	/	29%[46.1 µM]	-31%	?	/	2%
11	COc1ccc(-n2nc(C(=O)NCC(=O)N(C)Cc3ccccc3)c3ccccc3c2=O)cc1	-1%	-23%	/	/	14%	-2%[46.1 µM]	/	2%
12	O=C(CSc1nnc(-c2ccccc2)o1)Nn1cnnc1	8%	35%[activator]	4%	4%	-1%	7%	0.4%	-2%
13	CN1CCC(O)(c2ccc(Cl)cc2)C(C(=O)c2ccc(Cl)cc2)C1 (stereo unspecified)	?	?	/	/	-3%	/	/	0%
14	COc1ccc(CCNC(=O)CCn2c(=O)c3ccccc3n(CC(=O)Nc3cc(Cl)ccc3C)c2=O)cc1OC	/	-13%	-4%	-18%[46.1 µM]	/	14%[46.1 µM]	-1.0%	/
15	O=C(O)c1cccc(NC(=S)NC(NC(=O)c2cccc([N+](=O)[O-])c2)C(Cl)(Cl)Cl)c1 (stereo unspecified)	2%	-3%	/	/	?	/	/	7%
16	CCCCN(c1ccccc1)c1ncnc2c1cnn2-c1cccc(C)c1	/	-18%	15%	15%[46.1 µM]	/	/	2.7%	/
17	O=C(c1ccc(OC2CCN(Cc3ccccc3C(F)(F)F)CC2)cc1)N1CCCCC1	0%	?	/	?	-31%	?	/	-8%
18	CCC(CC)C(=O)c1c[nH]c(C(=O)NCC2CCCO2)c1 (stereo unspecified)	1%	-15%	2%	7.1µM*	-7%	1%	7.4%	-6%
19	O=C(Nc1ccnn1C1CCN(C/C=C/c2ccccc2)CC1)c1ccccc1Cl	6%	-8%	/	1%	17%	?	/	5%
20	Brc1ccc(C2=Nn3c(Cn4nnc5ccccc54)nnc3SC2)cc1	16%	-32%	/	/	4%	/	/	0%

# Record cards (already shown):
# Shown for O=C(c1ccc(OC2CCN(Cc3ccccc3C(F)(F)F)CC2)cc1)N1CCCCC1 : RE007 growth inh: 0%; 2A StopGo: ?; Cruzain noTriton: /; Lassa entry inh: ?; NS1 function inh: -31%; MARV entry inh: ?; Cruzain inh Det: /; SARS PLP yeast: -8%
# Shown for COc1ccc(-n2nc(C(=O)NCC(=O)N(C)Cc3ccccc3)c3ccccc3c2=O)cc1 : RE007 growth inh: -1%; 2A StopGo: -23%; Cruzain noTriton: /; Lassa entry inh: /; NS1 function inh: 14%; MARV entry inh: -2%[46.1 µM]; Cruzain inh Det: /; SARS PLP yeast: 2%
# Shown for Cc1ccc2[nH]c(-c3cccc(F)c3)cc(=O)c2c1 : RE007 growth inh: 5%; 2A StopGo: 38%[activator]; Cruzain noTriton: -28%&-10%; Lassa entry inh: -13%; NS1 function inh: -6%; MARV entry inh: ?; Cruzain inh Det: 0.0%&4.0%; SARS PLP yeast: 3%

# The results go on.
item	compound	RE007 growth inh	2A StopGo	Cruzain noTriton	Lassa entry inh	NS1 function inh	MARV entry inh	Cruzain inh Det	SARS PLP yeast
21	COc1ccc(CCNC(=O)CN2C(=O)c3ccccc3C2=O)cc1	-1%	16%	6%	-2%	?	13%	3.8%	5%
22	COC(=O)C(NS(=O)(=O)c1cccc(S(=O)(=O)NC(C(=O)OC)c2ccccc2)c1)c1ccccc1 (stereo unspecified)	2%	-6%	/	/	11%	/	/	-14%
23	COCCN(C(=O)CSc1nnc(C)n1Cc1ccccc1)c1c(N)n(Cc2ccccc2)c(=O)[nH]c1=O	-14%	3%	/	1%	/	?	/	-4%
24	CCOC(=O)c1ccccc1NC1CC(=O)N(c2ccccc2C)C1=O (stereo unspecified)	-12%	-13%	18%	11%	-51%	1%[46.1 µM]	-6.7%	-24%
25	CCOCCOC(=O)c1cccc(NC(=O)OCC)c1	0%	25%	-4%	?	-5%	-10%[46.1 µM]	5.1%	-3%
26	CCn1nnc(-c2ccccc2NS(=O)(=O)c2ccc(S(=O)(=O)N3CCCCCC3)cc2)n1	-3%	-13%	4%	3%	-24%	-14%	-3.9%	-7%
27	Cc1ccc(-n2c(CNc3ccc(F)cc3)nnc2SCC(=O)N2CCOCC2)cc1	21%	4%	?	-1%	-8%	2%[46.1 µM]	0.6%	12%
28	CCOC(=O)N1CCN(CC(=O)Nc2nc3ccc(OC)cc3s2)CC1	-2%	-19%	/	/	-18%	/	/	2%
29	COCCSc1ccccc1C(=O)Nc1cc(C)cc(C)c1	?	-8%	/	-3%	-8%	?	/	-1%
30	CCc1oc2c(C)c(O)ccc2c(=O)c1-c1ccc2ccccc2n1	-9%	-21%	5%	-24%	13%	-9%	-5.0%	-6%
31	O=C(Cn1nnc2ccccc2c1=O)N1CCOCC1	-9%	-7%	/	0%	/	-9%[14.2 µM]	/	0%
32	Cc1ccc(-n2c(SCC(=O)c3ccccc3)nc3c([nH]c4ccccc43)c2=O)cc1	/	4%	-13%	1%[46.1 µM]	/	/	-0.3%	/
33	CCOc1ccc(C(=O)O/N=C(\N)c2ccccn2)cc1OCC	-7%	26%	/	/	-28%	/	/	-11%
34	Cc1cc(OC(=O)c2c(F)cc(F)cc2F)nc(C)n1	-1%	-18%	/	11%[46.1 µM]	/	9%[46.1 µM]	/	2%
35	O=C1OC(Nc2ccc(F)cc2F)c2ccccc21 (stereo unspecified)	7%	10%	6%	13%	5%	5%	4.7%	3%
36	CS(=O)(=O)N1CCN(S(=O)(=O)c2ccccc2[N+](=O)[O-])CC1	-2%	-20%	/	19%	1%	?	/	0%
37	CNC(=O)c1nc(C)c(C2(C)CC(c3cccc([N+](=O)[O-])c3)=NO2)s1 (stereo unspecified)	0%	-23%	/	/	-35%	/	/	-1%
38	CC1=NN(S(=O)(=O)c2ccc(Cl)cc2Cl)C(=O)c2ccccc2O1	20%	-19%	/	?	-67%	-13%[46.1 µM]	/	0%
39	Cc1ccc(S(=O)(=O)c2nc(-c3ccccc3F)oc2N2CCCCC2)cc1	/	27%	-13%	?	/	?	0.1%	/
40	COc1cc2[nH]c(=O)n(CCCCCC(=O)N3CCN(c4ccccn4)CC3)c(=O)c2cc1OC	1%	19%	27%	1%	-20%	-21%&-21%	0.5%	4%
41	CC(=O)N(Cc1cccnc1)c1nc2c(F)cc(F)cc2s1	/	-6%	0%	-16%[46.1 µM]	/	/	-5.1%	/
42	Cc1ccc(S(=O)(=O)N2CCC(C(=O)N[C@@H](C)C(=O)Nc3ccc4c(c3)OCO4)CC2)cc1	14%	-19%	-26%	9%	-25%	8%	0.0%	6%
43	CC(=O)Nc1nc(CC(=O)c2ccccc2)cs1	1%	-10%	-8%	/	0%	/	-2.3%	-8%
44	CN(C)c1ccc(C(=O)c2ccccc2C(=O)O)c(O)c1	40%	11%	-27%	4%	3%	6%[46.1 µM]	-11%	2%
45	O=C(Nc1nc2n(n1)C(c1ccccc1)C=C(c1ccccc1)N2)c1ccccc1 (stereo unspecified)	/	-23%	12%	12%[46.1 µM]	/	-6%[46.1 µM]	2.0%	/
46	Brc1ccc(CSc2ncn[nH]2)cc1	11%	23%	-4%	9%	-62%	20%	-2.0%	-6%
47	CC1CCCCN1CCCNc1ccc(C(CC(N)=O)NC(=O)Cc2ccc(Cl)cc2)cc1[N+](=O)[O-] (stereo unspecified)	-13%	-19%	/	/	-8%	/	/	0%
48	COc1ccc(N(CC(=O)NCCc2ccc(S(N)(=O)=O)cc2)S(=O)(=O)c2c(C)noc2C)cc1	-3%	-7%	/	/	-15%	/	/	-1%

# Rewritten in transposed form: part of the list above
[41] CC(=O)N(Cc1cccnc1)c1nc2c(F)cc(F)cc2s1
[47] CC1CCCCN1CCCNc1ccc(C(CC(N)=O)NC(=O)Cc2ccc(Cl)cc2)cc1[N+](=O)[O-] (stereo unspecified)
[45] O=C(Nc1nc2n(n1)C(c1ccccc1)C=C(c1ccccc1)N2)c1ccccc1 (stereo unspecified)
[48] COc1ccc(N(CC(=O)NCCc2ccc(S(N)(=O)=O)cc2)S(=O)(=O)c2c(C)noc2C)cc1

assay / entry,41,47,45,48
RE007 growth inh,/,-13%,/,-3%
2A StopGo,-6%,-19%,-23%,-7%
Cruzain noTriton,0%,/,12%,/
Lassa entry inh,-16%[46.1 µM],/,12%[46.1 µM],/
NS1 function inh,/,-8%,/,-15%
MARV entry inh,/,/,-6%[46.1 µM],/
Cruzain inh Det,-5.1%,/,2.0%,/
SARS PLP yeast,/,0%,/,-1%

# Assay outcomes from PubChem BioAssay.
